Rango release inh = qHTS Assay for Inhibitors of RanGTP induced Rango (Ran-regulated importin-beta cargo) - Importin beta complex dissociation. Biochemical FRET Rango-importin beta, RanGTP-induced dissociation. Potency, µM (titrated, usually from 46.1 µM), for the others: at the highest dose activity change, negative = inhibition. 340,000 tested, 0.071% active; active means falling FRET ratio curve, often poorly fitted, with flat reads before Ran was added; inconclusive means other falling curves, or compound fluorescence or quenching; inactive means flat or rising ratio curve;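 note: potency is the fitted concentration of half-maximal effect; % of control where 0% means no effect; nearly all actives have a fitted effect of over 45% in size; -100% = wells without RanGTP and RCC1; the record marks most hits as doubtful in a second field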
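Compounds preincubate 5 min with complex of recombinant Rango and importin beta in PBS with 1 mM DTT. Ran (0.6 uM) loaded with 2 mM GTP plus 0.2 uM RCC1 starts dissociation; FRET is recorded 45 min later.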
GLA inh pH 4.5 = qHTS Assay for Inhibitors of Human alpha-Galactosidase at pH 4.5; AID 1467, 2008; 230,000 tested, under 10 active; Alpha-galactosidase A (Homo sapiens), P06280; activity change, negative = inhibition, % at 105 µM; purified enzyme, 4-MU-alpha-Gal fluorescence, pH 4.5; inconclusive = small, poorly fitted or top-dose-only inhibition, or a rising curve; inactive = flat fitted curve, though single readings scatter; no compound was filed as active;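 note: 0% = full activity with enzyme and -100% = basal without enzyme; dose as in the result columns while the protocol names 77 µM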
Target sequence (P06280 whole entry, looked up): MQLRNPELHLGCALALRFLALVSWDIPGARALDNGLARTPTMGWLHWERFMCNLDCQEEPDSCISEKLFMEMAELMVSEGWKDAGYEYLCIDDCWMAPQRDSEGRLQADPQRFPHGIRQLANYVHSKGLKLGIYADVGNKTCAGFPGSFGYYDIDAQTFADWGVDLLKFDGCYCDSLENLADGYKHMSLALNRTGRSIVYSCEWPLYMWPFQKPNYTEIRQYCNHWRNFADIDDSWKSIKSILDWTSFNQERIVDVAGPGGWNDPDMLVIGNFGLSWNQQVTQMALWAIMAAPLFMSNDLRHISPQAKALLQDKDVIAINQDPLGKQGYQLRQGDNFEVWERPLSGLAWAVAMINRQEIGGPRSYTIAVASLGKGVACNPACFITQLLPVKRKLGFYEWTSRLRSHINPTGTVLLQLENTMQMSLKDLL
Rango-impB inh = qHTS Assay for Inhibitors of Rango (Ran-regulated importin-beta cargo) - Importin beta complex formation; Rango CFP/YFP FRET sensor + importin beta, 45 min; Potency, µM (doses to about 92.2 µM), for inactives: at the top dose inhibition of complex formation; 340,000 tested, 0.031% active; AID 540263, 2011; active = rising FRET ratio curve, often small or poorly fitted; inconclusive = mostly compound fluorescence or quenching in the first reads; inactive = flat curves in all reads;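 note: potency is the fitted concentration of half-maximal effect; 0% = DMSO wells and 100% = buffer wells lacking importin beta; nearly all actives have a fitted effect of over 15% in size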
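Inhibition scored from the CFP 486 nm/YFP 530 nm FRET ratio 45 min after adding 0.125 microM importin beta to 50 nM Rango biosensor preincubated 5 min with compound (room temperature, PBS with DTT, Tween-20, BSA). No-importin wells as positive control.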
miR-21 reporter = qHTS Assay for Modulators of miRNAs and/orActivators of miR-21. HeLa miR-21 FLuc reporter, luciferase, 48 h. Potency, µM (doses to about 38.3 µM), for the others: at the top dose reporter change, positive = more light. 340,000 tested, under 10 active; active = well fitted rising curve with a large enough effect; inconclusive = small, poorly fitted or top-dose-only effect; inactive = no such curve, though single readings can be large or run the other way;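 note: % of control where 0% means no effect; miR-21 action dims this reporter so a rising signal means less miR-21 action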
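HeLa miR-21-FLuc reporter line, endogenous miR-21; 2000 cells/well in DMEM/10% FBS; compound titration up to ~40uM final, 48 h, 37 degree Celsius; luciferase detection reagent, 15 min lysis, CCD luminescence.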
Active calls of the source: *; & = joins results of further samples. Some of the compounds tested; the hit share may differ from the screen's.

Results for C/C(=N\N1CCCCC1)c1ccccc1O ?
Rango release inh: 14%; Rango-impB inh: -2.9%; miR-21 reporter: -2%

How did Cc1ccc(S(=O)(=O)Nc2ccccc2C(N)=O)cc1 do in these assays?
Rango release inh: 5%; GLA inh pH 4.5: 12; Rango-impB inh: 5.0%; miR-21 reporter: -9%

How did COc1ccc(C2CC(C(F)(F)F)n3nc(C(=O)NCCCn4ccnc4)cc3N2)cc1OC (centres undefined) do in these assays?
Rango release inh: -4%; GLA inh pH 4.5: 0; Rango-impB inh: -1.4%; miR-21 reporter: -6%

Results for Cc1ccc(S(=O)(=O)N2CCC(C(=O)N[C@@H](C)C(=O)NCc3ccco3)CC2)cc1 ?
Rango release inh: -1%; GLA inh pH 4.5: -7; Rango-impB inh: -0.4%; miR-21 reporter: -1%

How did COc1cccc(CNC(=O)Cn2ccc3cc(S(=O)(=O)N4CCCC4)ccc32)c1OC do in these assays?
Rango release inh: 4%; Rango-impB inh: inconclusive; miR-21 reporter: 1%&-1%

What do the screens show for `O=C(c1ccc(N2C(=O)C3CC=C(Cl)CC3C2=O)cc1)N1CCOCC1` (centres undefined)?
Rango release inh: -2%; GLA inh pH 4.5: 12; Rango-impB inh: -4.1%; miR-21 reporter: -1%

How did COc1ccc(NS(=O)(=O)c2ccc(Br)s2)cc1OC do in these assays?
Rango release inh: -2%; GLA inh pH 4.5: 7; Rango-impB inh: 0.5%; miR-21 reporter: 14%

Results for Cc1cc(C)c(S(=O)(=O)N2CCN(c3ccc([N+](=O)[O-])c(NCC4CCCO4)c3)CC2)c(C)c1 (centres undefined) ?
Rango release inh: -1%; GLA inh pH 4.5: 3; Rango-impB inh: -1.3%; miR-21 reporter: -1%

What do the screens show for `O=[N+]([O-])c1ccc(N2CCN(Cc3cccc([N+](=O)[O-])c3)CC2)cc1`?
Rango release inh: 10%; Rango-impB inh: 2.2%; miR-21 reporter: 26%

How did COc1ccc2cc(-c3cc(C(=O)O)c4ccccc4n3)ccc2c1 do in these assays?
Rango release inh: -5%; GLA inh pH 4.5: -1; Rango-impB inh: -4.3%; miR-21 reporter: inconclusive

What do the screens show for `CN1CCN(C(=O)C2=C[C@@H](c3csc4ccccc34)C[C@@H](OCc3ccc(CO)cc3)O2)CC1`?
Rango release inh: 5%; GLA inh pH 4.5: -5; Rango-impB inh: 1.1%; miR-21 reporter: -2%

How did Cc1cc(OCC(=O)NCC(C)C)cc(C)c1Br do in these assays?
Rango release inh: 0%; GLA inh pH 4.5: 7; Rango-impB inh: -0.1%; miR-21 reporter: -9%

What do the screens show for `Cc1cccc(N2CCN(c3nc4ccc(Cl)cc4n4cnnc34)CC2)c1C`?
Rango release inh: -12%; GLA inh pH 4.5: 3; Rango-impB inh: -0.8%; miR-21 reporter: -9%

What do the screens show for `COc1ccc(/C=N/n2cnnc2)cc1Oc1nc(Cl)ncc1F`?
Rango release inh: -1%; GLA inh pH 4.5: 2; Rango-impB inh: 0.2%; miR-21 reporter: 0%

What do the screens show for `O=C1CC(=O)N(c2cccc(F)c2)N1`?
Rango release inh: -17%; GLA inh pH 4.5: -7; Rango-impB inh: 1.3%; miR-21 reporter: -11%

Results for COc1cc(C(CCN2CCCC2)c2c(OC)cc(OC)c3ccc(=O)oc23)cc(OC)c1OC (centres undefined) ?
Rango release inh: 5%; GLA inh pH 4.5: 3; Rango-impB inh: -0.7%; miR-21 reporter: -2%

What do the screens show for `CC(=O)OCCN(CCCn1c(-c2ccncc2)nc2ccccc21)c1nc(CN2CCCCC2)cs1`?
Rango release inh: -7%; Rango-impB inh: -6.5%; miR-21 reporter: -2%

How did Nc1cc(=O)nc(SCC(=O)NC2CCCCC2)n1-c1ccccc1 do in these assays?
Rango release inh: 10%; GLA inh pH 4.5: 5; Rango-impB inh: -1.1%; miR-21 reporter: 1%

How did O=C1C=C(c2ccc(F)cc2OCc2ccccc2)C[C@@H](c2ccc(F)cc2)C1 do in these assays?
Rango release inh: inconclusive; Rango-impB inh: 0.4%

How did O=C(Cn1c(=O)c2cccn2c2ccccc21)NCCc1ccc(Cl)cc1 do in these assays?
Rango release inh: 0%; Rango-impB inh: 0.7%; miR-21 reporter: -1%

Results for COC(=O)/C=C/C1=CN(Cc2ccccc2)CCC1=O ?
Rango release inh: 19%; Rango-impB inh: 0.8%

How did CN(C)S(=O)(=O)c1cccc(NC(=O)c2ccc(N3CCOCC3)c([N+](=O)[O-])c2)c1 do in these assays?
Rango release inh: 13%; GLA inh pH 4.5: -12; Rango-impB inh: -4.6%; miR-21 reporter: 14%

Results for CC(OC(=O)c1cccc(S(=O)(=O)N2CCCCCC2)c1)C(=O)Nc1ccc(S(N)(=O)=O)cc1 (centres undefined) ?
Rango release inh: 3%; Rango-impB inh: -1.8%

How did COCCN(Cc1cc2cc3c(cc2nc1Cl)OCO3)C(=O)Nc1ccc(OC)cc1 do in these assays?
Rango release inh: 18%; GLA inh pH 4.5: -10; Rango-impB inh: 0.1%; miR-21 reporter: -9%

How did O=C(COC(=O)c1cncc(Br)c1)NCc1ccco1 do in these assays?
Rango release inh: -11%; GLA inh pH 4.5: 2; Rango-impB inh: -0.5%; miR-21 reporter: 1%

What do the screens show for `CCOC(=O)c1c(-c2ccc(F)cc2)csc1NC(=O)c1c(-c2ccccc2)noc1C`?
Rango release inh: -1%; GLA inh pH 4.5: -6; Rango-impB inh: -3.7%; miR-21 reporter: 17%

Results for CCOc1cc(/C=C2\CCCc3c2nc2ccccc2c3C(=O)O)ccc1OC ?
Rango release inh: inconclusive; Rango-impB inh: inconclusive; miR-21 reporter: 0%

What do the screens show for `CC1=C(CCN2CCN(C3CCCC3)C(CCO)C2)C(C)(C)CCC1` (centres undefined)?
Rango release inh: -11%; GLA inh pH 4.5: 0; Rango-impB inh: -0.1%; miR-21 reporter: 5%

Results for CC1CCC(NC(=O)Cn2cc3c(n2)CCCC3)CC1 (centres undefined) ?
Rango release inh: 11%; GLA inh pH 4.5: -6; Rango-impB inh: 0.2%; miR-21 reporter: -23%

How did CC(NCCc1ccc(S(N)(=O)=O)cc1)C(=O)NCCc1ccc(F)cc1 (centres undefined) do in these assays?
Rango release inh: -7%; Rango-impB inh: 5.3%; miR-21 reporter: 0%

Results for Cc1ccccc1CSCC(=O)NCCSc1ccccn1 ?
Rango release inh: -8%; GLA inh pH 4.5: -9; Rango-impB inh: -2.2%; miR-21 reporter: -22%

How did COc1cc2c(O)cc(C(=O)O)c(-c3cc(OC)c(OC)c(OC)c3)c2cc1OC do in these assays?
Rango release inh: 8%; Rango-impB inh: -0.4%

What do the screens show for `CC1CCN(CCCNC(=O)c2ccc(Cn3c(=S)[nH]c4ccc(Br)cc4c3=O)cc2)CC1`?
GLA inh pH 4.5: 0; miR-21 reporter: -25%

Results for CC(C)(C)c1nnc2sc(SCC(=O)N3CCc4ccccc43)nn2c1=O ?
Rango release inh: -2%; GLA inh pH 4.5: 4; Rango-impB inh: 0.2%; miR-21 reporter: 5%

How did CCc1nn(CCCC(=O)NC(C)c2ccccc2)c(=O)c2cc3occc3n12 (centres undefined) do in these assays?
Rango release inh: -11%; Rango-impB inh: 5.6%; miR-21 reporter: -21%&-19%

Results for CC1(C)CN(C(Cc2ccccc2)C(N)=O)C1=O (centres undefined) ?
Rango release inh: -3%; Rango-impB inh: 1.6%; miR-21 reporter: 0%

How did CC1CCCCN1C(=O)c1cc(S(=O)(=O)N2CCOCC2)ccc1Cl (centres undefined) do in these assays?
Rango release inh: 14%; Rango-impB inh: -2.5%

What do the screens show for `Fc1ccccc1/C=N/Nc1nc2ccccc2o1`?
Rango release inh: -5%; Rango-impB inh: -0.1%; miR-21 reporter: -50%

How did O=C(CC(C(=O)O)c1ccc(Cl)cc1)c1ccc(Cl)c(Cl)c1 (centres undefined) do in these assays?
Rango release inh: -13%; Rango-impB inh: -1.2%; miR-21 reporter: -15%

Results for Cc1cccc(-c2noc(CCCC(=O)NC3CCCC3)n2)c1 ?
Rango release inh: -3%; Rango-impB inh: 0.5%; miR-21 reporter: 16%

Continued, overlapping the part above by two compounds.
How did O=C(CC(C(=O)O)c1ccc(Cl)cc1)c1ccc(Cl)c(Cl)c1 (centres undefined) do in these assays?
Rango release inh: -13%; Rango-impB inh: -1.2%; miR-21 reporter: -15%

Results for Cc1cccc(-c2noc(CCCC(=O)NC3CCCC3)n2)c1 ?
Rango release inh: -3%; Rango-impB inh: 0.5%; miR-21 reporter: 16%

Results for O=C(c1ccccc1OCc1ccccc1Br)N1CCN(c2ncccn2)CC1 ?
Rango release inh: 2%; GLA inh pH 4.5: -5; Rango-impB inh: inconclusive; miR-21 reporter: 15%

How did Cc1cccc(N(CC(=O)NC2CCCCC2)C(=O)c2c(C)noc2C)c1 do in these assays?
Rango release inh: 22%; GLA inh pH 4.5: -23; Rango-impB inh: -1.8%; miR-21 reporter: -3%

Results for CCOc1cc(NC(=O)c2ccccc2C)c(OCC)cc1NC(=O)C1=Cc2ccccc2OC1 ?
Rango release inh: 35%; GLA inh pH 4.5: 3; Rango-impB inh: -4.2%; miR-21 reporter: -3%

What do the screens show for `COC(=O)C1C2C=CC3(CN(c4cccc(Cl)c4)C(=O)C13)O2` (centres undefined)?
Rango release inh: 6%; GLA inh pH 4.5: 7; Rango-impB inh: 1.9%; miR-21 reporter: -2%

How did Cc1ccc(S(=O)(=O)NC(=O)NCCCCNC(=O)NS(=O)(=O)c2ccc(C)cc2)cc1 do in these assays?
Rango release inh: -15%; GLA inh pH 4.5: 3; Rango-impB inh: 0.0%; miR-21 reporter: -4%

How did Oc1ccc(/C=N/Nc2ccc(Cl)nn2)cc1O do in these assays?
Rango release inh: -2%; Rango-impB inh: -3.0%; miR-21 reporter: -71%

How did O=C(Nc1nc2cc3c(cc2s1)OCO3)C1CCCCC1 do in these assays?
Rango release inh: 1%; Rango-impB inh: 4.3%; miR-21 reporter: -19%

How did CCC(C)C(NC(=O)OC(C)(C)C)C(=O)NC(CC(C)C)C(N)=O (centres undefined) do in these assays?
Rango release inh: -9%; GLA inh pH 4.5: -6; Rango-impB inh: inconclusive; miR-21 reporter: -6%

How did CCOC(=O)N1CCC(NC(=O)CN(C)S(=O)(=O)c2cc3c(cc2Cl)NC(=O)CO3)CC1 do in these assays?
Rango release inh: -3%; GLA inh pH 4.5: 3; Rango-impB inh: -1.9%; miR-21 reporter: 3%

Structures from the list above that contain fluorine (seven):
How did COc1ccc(C2CC(C(F)(F)F)n3nc(C(=O)NCCCn4ccnc4)cc3N2)cc1OC (centres undefined) do in these assays?
Rango release inh: -4%; GLA inh pH 4.5: 0; Rango-impB inh: -1.4%; miR-21 reporter: -6%

What do the screens show for `COc1ccc(/C=N/n2cnnc2)cc1Oc1nc(Cl)ncc1F`?
Rango release inh: -1%; GLA inh pH 4.5: 2; Rango-impB inh: 0.2%; miR-21 reporter: 0%

What do the screens show for `O=C1CC(=O)N(c2cccc(F)c2)N1`?
Rango release inh: -17%; GLA inh pH 4.5: -7; Rango-impB inh: 1.3%; miR-21 reporter: -11%

How did O=C1C=C(c2ccc(F)cc2OCc2ccccc2)C[C@@H](c2ccc(F)cc2)C1 do in these assays?
Rango release inh: inconclusive; Rango-impB inh: 0.4%

What do the screens show for `CCOC(=O)c1c(-c2ccc(F)cc2)csc1NC(=O)c1c(-c2ccccc2)noc1C`?
Rango release inh: -1%; GLA inh pH 4.5: -6; Rango-impB inh: -3.7%; miR-21 reporter: 17%

How did CC(NCCc1ccc(S(N)(=O)=O)cc1)C(=O)NCCc1ccc(F)cc1 (centres undefined) do in these assays?
Rango release inh: -7%; Rango-impB inh: 5.3%; miR-21 reporter: 0%

What do the screens show for `Fc1ccccc1/C=N/Nc1nc2ccccc2o1`?
Rango release inh: -5%; Rango-impB inh: -0.1%; miR-21 reporter: -50%
